# SARS PLP yeast = qHTS of Yeast-based Assay for SARS-CoV PLP | 330,000 tested, 0.19% active | S. cerevisiae expressing SARS-CoV PLpro, growth rescue; control for the full effect not named in the record | Potency, µM (highest dose often 32.9 µM), without a hit: at the highest dose activity, positive = growth rescue | AID 485353, 2010; also: 0% is about no effect; nearly all actives have a fitted effect of over 55% in size; growth read by luminescence after 48 h
# NS1 function inh = qHTS Assay for Inhibitors of Influenza NS1 Protein Function; S. cerevisiae slowed by influenza A NS1, growth recovery by OD600; Potency, µM (series often up to 46.1 µM), for the others: at the top dose activity, positive = more growth; 270,000 tested, 0.4% active; AID 2326, 2010; also: actives are rising curves; nearly all actives have a fitted effect of over 50% in size
#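 Compounds were scored for reversing the slow growth caused by influenza A NS1 in S. cerevisiae, measured by optical density at 600 nm. Assay medium contained 2% galactose at pH 6.0; NS1-free yeast of the same strain were the positive control.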
# StopGo reporter = High Throughput Screening for Foot and Mouth Disease Virus Antivirals; 410,000 tested, 1.2% active; AID 1159524, 2015; Potency, µM (top dose mostly 57.9 µM), for the others: at the highest dose signal change, negative = less light; human cells with a luciferase reporter of 2A StopGo recoding; control for the full effect not named in the record; active = well fitted falling curve with a large enough effect; inconclusive = small, poorly fitted or top-dose-only effect; inactive = no such curve, though single readings can be large or run the other way; tested in HEK293T cells; also: % is scaled to controls: 0 for no effect and ±100 for the full control effect; nearly all actives have a fitted effect of over 45% in size; luciferase light after 4 h
# Lassa entry inh = qHTS for Inhibitors of binding or entry into cells for Lassa Virus. Lassa virus pseudotype entry inhibition, cell reporter; control for the full effect not named in the record. Potency, µM (titrated, usually from 37.9 µM), for inactives: at the highest dose activity change, negative = inhibition, usual class: inhibitors. 300,000 tested, 1.2% active. AID 540256, 2011; active means well fitted inhibition curve with a large enough effect; inconclusive means small, poorly fitted or top-dose-only effect, or effect the other way; inactive means flat fitted curve, though single readings scatter; tested in HEK293 cells; also: % is scaled to controls: 0 for no effect and ±100 for the full control effect; nearly all actives have a fitted effect of over 50% in size; luciferase read-out
# RE007 growth inh = qHTS Assay for Inhibitors of the HIV-1 protein Vpr. S. pombe RE007 Vpr strain, BacTiter-Glo ATP luminescence, 24 h; control for the full effect not named in the record. Potency, µM (titrated, usually from 92.2 µM), without a hit: at the top dose activity change, negative = less growth. 360,000 tested, 0.21% active; active = well fitted falling curve with a large enough effect; inconclusive = small, poorly fitted or top-dose-only effect; inactive = no such curve, though single readings can be large or run the other way;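 also: % is scaled to controls: 0 for no effect and ±100 for the full control effect; nearly all actives have a fitted effect of over 50% in size; the assay follows cell death caused by Vpr and the record does not say whether a fall means rescue or toxicity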
#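 Fission yeast strain RE007, carrying one chromosomally integrated HIV-1 vpr copy, was seeded at OD 0.01 in PMG+AL medium with 23 nL pinned compound. After 24 h at 30 °C and 99% humidity, viability was read by BacTiter-Glo luminescence.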
# Cruzain noTriton = qHTS Assay for Promiscuous and Specific Inhibitors of Cruzain (without detergent). Cruzipain (Trypanosoma cruzi), P25779. purified cruzain, Z-FR-AMC fluorescence, no detergent. Potency, µM, without a hit: max response, negative = inhibition, hits mostly inhibitors. 200,000 tested, 2.3% active. AID 1476, 2009; active = well fitted curve in the direction sought with a large enough effect; inconclusive = small, poorly fitted or top-dose-only effect, or another doubt; inactive = no such curve, though single readings can be large; an effect the other way counts as inactive or inconclusive;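 also: plate controls were enzyme without inhibitor for no effect and buffer without enzyme for full effect; nearly all actives have a fitted effect of over 40% in size; top concentration of the series not given in the record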
# Target sequence (P25779 123-467 limits assumed): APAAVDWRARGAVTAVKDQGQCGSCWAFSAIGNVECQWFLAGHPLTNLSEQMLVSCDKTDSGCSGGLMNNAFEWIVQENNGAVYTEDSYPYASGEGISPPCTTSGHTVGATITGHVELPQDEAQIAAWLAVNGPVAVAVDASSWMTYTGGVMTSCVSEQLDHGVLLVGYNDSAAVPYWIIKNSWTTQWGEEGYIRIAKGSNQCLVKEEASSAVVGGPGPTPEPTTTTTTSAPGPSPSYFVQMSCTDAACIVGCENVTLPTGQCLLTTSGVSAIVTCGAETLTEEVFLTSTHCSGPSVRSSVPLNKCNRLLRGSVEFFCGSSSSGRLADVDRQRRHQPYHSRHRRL
#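 Purified cruzain at 1.5 nM, pre-incubated 15 min with compound at room temperature in 100 mM sodium acetate pH 5.5, 5 mM DTT, 0.00005% Triton X-100. Reaction started with 2 uM Z-FR-AMC; AMC fluorescence increase over 60 s gives rate.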
# Marburg entry inh = qHTS for inhibitors of binding or entry into cells for Marburg Virus; Marburg virus pseudotyped entry inhibition, cell reporter; control for the full effect not named in the record; about a third of the inactives were read at about 46 µM; Potency, µM (doses to about 37.8 µM), inactives show top-dose activity change, negative = inhibition, actives largely listed as inhibitors; 300,000 tested, 1.8% active; AID 540276, 2011; active = well fitted inhibition curve with a large enough effect; inconclusive = small, poorly fitted or top-dose-only effect, or effect the other way; inactive = flat fitted curve, though single readings scatter; tested in HEK293 cells; about a fifth of its hits are not listed in these tables; also: % is scaled to controls: 0 for no effect and ±100 for the full control effect; luciferase read-out
# Cruzain Triton = qHTS Assay for Promiscuous and Specific Inhibitors of Cruzain (with detergent). Cruzipain (Trypanosoma cruzi), P25779. Potency, µM, without a hit: max response, negative = inhibition, usual class: inhibitors. purified cruzain, Z-FR-AMC fluorescence, 0.01% Triton. 200,000 tested, 0.43% active; active = well fitted curve in the direction sought with a large enough effect; inconclusive = small, poorly fitted or top-dose-only effect, or another doubt; inactive = no such curve, though single readings can be large; an effect the other way counts as inactive or inconclusive;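 also: plate controls were neutral wells for no effect and buffer without enzyme for full effect; nearly all actives have a fitted effect of over 40% in size; top concentration of the series not given in the record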
#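 Compounds were screened in titration against cruzain (1.5 nM) with 0.01% Triton X-100 to counter colloidal aggregation. Activity was the AMC fluorescence increase over 60 s after adding 2 uM Z-FR-AMC at pH 5.5.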
# The depositor's hits bear a star; ? = inconclusive; · = no result given; & = joins results of further samples; [ ] = remark or other dose. Unless noted, calls follow the shape of the dose curve; as a rule, active means well fitted rising curve with a large enough effect; inconclusive means small, poorly fitted or top-dose-only effect; inactive means no such curve, though single readings can be large or run the other way. Potency is read from the fitted curve at half-maximal effect.
SMILES,SARS PLP yeast,NS1 function inh,StopGo reporter,Lassa entry inh,RE007 growth inh,Cruzain noTriton,Marburg entry inh,Cruzain Triton
Cn1c(=O)c2sccc2n2c(CCCC(=O)NCc3ccco3)nnc12,3%,1%,-3%,·,-10%,·,·,·
O=S(=O)(c1ccc(Br)cc1Cl)N1CCCN(c2ccc(C(F)(F)F)cn2)CC1,-11%,·,-28%,-19%,4%,·,-8%,·
CC(=O)c1c(N2CCN(C)CC2)[nH]c(-c2ccccc2)nc1=S,2%,16%,0%,3%,11%,-11%,?,-5.0%
COc1ccc(N2CCN(CCCNC(=O)C3COc4ccccc4C3)CC2)cc1 (stereo not drawn),·,·,0%,1%[46.1 µM],·,3%,·,1.1%
CN1CCN(CC#CCC(O)(c2ccccc2)C2CCCC2)CC1 (stereo not drawn),15%,1%,11%,-8%,2%,3%,18%&18%,1.6%
Cc1ccc(Sc2ccc([N+](=O)[O-])cc2[N+](=O)[O-])nc1,-19%,1%,?,?,-14%,-8%,?,-5.2%
Cc1ccccc1CN1CCNC(=O)C1CC(=O)NCCN1CCCCC1=O (stereo not drawn),-8%,9%,-19%,-1%,-1%,·,15%,·
O=C(c1cccc(C(F)(F)F)c1)C1CCCN(Cc2ccc(OCCO)cc2)C1 (stereo not drawn),0%,0%,?,-7%,-13%,·,?,·
COc1ccc(Cc2nnc(SC(C)C(=O)Nc3ccc(F)cc3Cl)o2)cc1 (stereo not drawn),2%,·,-16%,-16%,1%,·,1%,·
O=C(O)c1ccc(CN2CCOCC2)o1,0%,4%,-5%,?,11%,·,-4%[46.1 µM],·
O=C(CSc1n[nH]c(-c2cccs2)n1)NC1CCS(=O)(=O)C1 (stereo not drawn),-2%,7%,-23%,·,16%,·,·,·
COc1cccc(CN2CCNC(=O)C2CC(=O)N(Cc2cnn(C)c2)C(C)C)c1 (stereo not drawn),-1%,-2%,8%,-1%[46.1 µM],17%,·,?,·
Cc1ccc(S(=O)(=O)N2CCOCC2)cc1NC(=O)CSc1n[nH]c(N)n1,2%,10%,-9%,·,1%,·,·,·
CCC1CCCCN1CCCNC(=O)c1ccc2c(c1)N(Cc1ccccc1F)C(=O)c1ccccc1S2(=O)=O (stereo not drawn),·,·,-7%,?,·,13%,?,1.6%
CC(NC(=O)c1cc(=O)[nH]c2ccccc12)c1ccccc1 (stereo not drawn),1%,·,-28%,?,13%,·,·,·
CCOCCCNC(=O)C1CCN(S(=O)(=O)c2c(C)noc2/C=C\c2ccc(OC)cc2)CC1,·,-13%,5%,1%,4%,·,-14%&-14%,·
Cc1nnc(N2CCCCC2)c2ccccc12,0%,8%,-22%,9%,-30%,-6%,-7%,-1.1%
COc1cccc(OCC(O)CN2C(C)CCCC2C)c1 (stereo not drawn),3%,5%,-1%,8%,15%,-6%,-7%,7.4%
COc1ccc(CCNC(=O)C/C(C)=N/NC(=O)C(c2ccccc2)c2ccccc2)cc1OC,0%,-6%,-28%,15%,-3%,·,15%[14.2 µM],·
COc1cc(/C=N/NC(=O)C(C)Nc2n[nH]c(=O)[nH]c2=O)ccc1O (stereo not drawn),-4%,1%,-12%,13%,-10%,-6%,0%,-2.1%
COc1cc2c(cc1OC)C(c1cc3cc(OC)c(OC)cc3[nH]c1=O)N(C(=O)C1CC1)CC2 (stereo not drawn),-1%,-6%,-4%,26µM*,13%,1%,13µM*,-4.3%
Cc1cc(=O)[nH]c(N2CCN(C(=O)c3ccco3)CC2)n1,1%,3%,3%,-10%[46.1 µM],6%,·,-7%[46.1 µM],·
O=C(Nc1nnc(-c2ccccn2)o1)c1ccc(Br)cc1,-24%,-31%,32%[activator],16%,-14%,-11%,?,-1.3%
CC1C(=O)N2CCCc3cc(S(=O)(=O)N(C)c4ccccc4)cc1c32 (stereo not drawn),1%,14%,-3%,·,-4%,·,·,·
O=C(NCC1CCCO1)c1ccc(CS(=O)(=O)c2c(Cl)cccc2Cl)o1 (stereo not drawn),-3%,1%,2%,·,6%,-9%,·,4.7%
CCOc1ccc(C(=O)C(CCC(CN(C)C)C(=O)c2ccc(OCC)cc2)CN(C)C)cc1 (stereo not drawn),-25%,-15%,16µM*,4.1µM*,29%,14%,1µM*,-2.0%
COc1cccc(CNC(=O)C2CC(=O)N(c3ccc4c(c3)OCCO4)C2)c1 (stereo not drawn),3%,·,-6%,4%,1%,·,?,·
O=Nc1c(O)n(Cc2ccc(Cl)cc2)c2ccccc12,-27%,-86%,2%,-27%,13%,-14%,?,-16%
CC(=O)OCC(=O)[C@@]12OC3(CCCC3)O[C@@H]1C[C@H]1[C@@H]3CCC4=CC(=O)C=C[C@]4(C)[C@@]3(F)[C@@H](O)C[C@@]12C,-24%,-15%,-20%&15%,?,0%,?,?,1.3%
CCNc1nc(NCc2ccccc2)nc(SCC(N)=O)n1,1%,·,-11%,-16%[46.1 µM],1%,·,-7%[46.1 µM],·
COC(=O)c1ccccc1N=Nc1c(N)n[nH]c1N,1%,7%,1%,15%,-8%,·,5%,·
CSc1ccc(CN(C)C(=O)CNC(=O)c2ccc3c(c2)OCO3)cc1,3%,·,-13%,-7%,7%,·,-1%,·
CCc1ccc(NC(=O)CSC2=Nc3ccccc3C3=NC(CC(=O)NCc4cccs4)C(=O)N23)cc1 (stereo not drawn),·,·,?,-5%[46.1 µM],·,26%,·,-2.3%
COc1ccc(/C=C(/C(=O)c2cccs2)N2C=CC=CC2=C(C#N)C#N)cc1,-23%,4%,-18%,·,0%,-1%,-1%,-8.1%
COc1ccc(C(C(=O)NC2CCCC2)N(C(=O)c2snc(-c3ccc(F)cc3)c2N)c2cccc(F)c2)cc1 (stereo not drawn),1%,6%,11%,-11%,-3%,10µM*,-1%,-0.7%
Cc1cc(C)cc(NC(=S)N2CCC(NC(=O)c3ccc(F)cc3)CC2)c1,0%,0%,-16%,?,4%,·,-11%[46.1 µM],·
COc1cc2c(c(OC)c1OC)-c1ccc(O)c(=O)cc1[C@@H](NC(C)=O)CC2,-4%,·,-17%,·,1%,4%,·,-4.3%
COc1ccc(NC2CCCN(C(=O)c3cccc(C)n3)C2)cc1OC (stereo not drawn),-3%,2%,-2%,·,9%,·,·,·
COc1ccc(-c2cn3cc(C)ccc3n2)cc1F,-2%,-7%,-14%,?,-28%,·,?,·
COc1cccc(Nc2c(Nc3cccc(OC)c3)c(=O)c2=O)c1,-2%,2%,-3%,14%,-1%,·,10%,·
C=CCOc1nc2c(c(=O)n(Cc3ccc(Cl)cc3)c(=O)n2C)n1C,·,-9%,0%,-9%,-1%,7%,-4%,-0.5%
Cc1ccc(-c2nc(CN(Cc3c(C)nn(C)c3C)C(C)C)c(C)o2)o1,1%,6%,2%,-10%,-14%,·,-20%[46.1 µM],·
CCOc1ccc(C2SCC(=O)Nc3c2c(C)nn3C2CCOC(C)(C)C2)cc1 (stereo not drawn),-2%,2%,-10%,-2%,3%,?,-17%,-6.0%
CC(Oc1ccc(Br)cc1)C(=O)Nc1ccc(S(=O)(=O)Nc2nccs2)cc1 (stereo not drawn),-5%,12%,11%,·,22%,·,·,·
N#Cc1ccsc1NC(=O)C1CCN(S(=O)(=O)c2cccs2)CC1,3%,·,-22%,-5%,7%,·,4%[46.1 µM],·
COc1ccc(N(C(=O)COc2c(C)cccc2C)S(=O)(=O)c2ccc(Cl)cc2)cc1,·,·,-21%,?,·,?,·,-4.3%
O=C(Nc1cccc(-c2cn3cccnc3n2)c1)c1cccs1,4%,-2%,-21%,6%,10%,18%,?,-4.3%
CN(C)C(=O)N1CCN(c2nc(-c3ccccc3)cs2)CC1,-5%,-18%,18%,·,?,·,·,·
COc1ccc(-c2csc(NC(=O)c3ccccc3NS(=O)(=O)c3ccc(F)c(F)c3)n2)cc1,-4%,0%,?,3.7µM*,4%,·,2.3µM*,·
CCN1CCN(C(c2cccs2)C(C)NC(=S)Nc2cccc(C)c2C)CC1 (stereo not drawn),3%,5%,17%,14%,3%,·,?,·
COc1ccc(C(=O)N2CCN(c3ccccc3)CC2)cc1S(=O)(=O)N1CCCC1,1%,-12%,-21%,?,3%,·,4%,·
CCN(CC)c1nc(-c2ccc(Cl)cc2)cc(C(F)(F)F)c1C#N,-10%,2%,-2%,?,-2%,-10%,10%,-9.6%
CCn1c2ccccc2c2cc(NC(=O)C3CCN(S(=O)(=O)c4cccs4)CC3)ccc21,1%,-2%,·,-23%,-8%,?,1%&-21%,1.8%
Cc1ccc(S(=O)(=O)NCCC(=O)OCn2nnc3ccccc3c2=O)cc1,-1%,-30%,19%,-14%,-19%,-5%,7%&7%[46.1 µM],-5.0%
O=C(NCCc1cccs1)c1ccc(Cn2c(SCc3ccc(F)cc3)nc3cccnc32)cc1,·,·,-1%,·,·,3%,-2%[46.1 µM],-5.1%
O=C(Nc1ccc(F)c(Cl)c1)C1CCCC1,·,·,13%,-3%,35%,·,-27%[46.1 µM],·
O=c1cc(CO)oc(CN2CCN(c3ccccc3)CC2)c1O,-7%,-8%,7%,?,-4%,-4%,?,2.9%
C=CCN=C1CC(C)(C)CC(=O)/C1=C(\O)CCCN1C(=O)c2ccccc2C1=O,0%,·,4%,11%,3%,·,-3%[46.1 µM],·
CC(C)N=C(NC#N)SCc1ccccc1,-12%,-80%,-22%,-1%,-6%,-1%,1%,5.7%
c1coc(C2=NCCc3ccccc32)c1,-1%,-2%,8%,·,9%,·,·,·

# Assay outcomes deposited in PubChem by National Center for Advancing Translational Sciences (NCATS).
